# High-throughput results (PubChem)
# Sfp inh: qHTS Assay for Inhibitors of Bacillus subtilis Sfp phosphopantetheinyl transferase (PPTase) | 4'-phosphopantetheinyl transferase ffp (Bacillus subtilis), Q9F4F7 | Biochemical Sfp PPTase activity, qHTS | Potency, µM, inactives show max response, negative = inhibition, usual class: inhibitors | hit rate 3.5% among 310,000 | AID 1490, 2009; active = well fitted inhibition curve with a large enough effect; inconclusive = small, poorly fitted or top-dose-only effect, or another doubt; inactive = no such curve, though single readings can be large or run the other way;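 note: the enzyme is Sfp with the accession as filed and its product quenches rhodamine fluorescence; potency is the fitted concentration of half-maximal effect; 0% = enzyme reaction without inhibitor and -100% = no enzyme wells; top concentration of the series not given in the record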
#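 Step 1, compound plus 15 nM Sfp-PPTase, 15 min, room temperature. Step 2, add rhodamine-CoA (5 uM) and BHQ-2-YbbR (12.5 uM). Step 3, read 525/598 nm fluorescence at 0 and 30 min.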
# TRPV1 PAM: HTS Assay for Compounds that Act as Potentiators of the Vanilloid Receptor 1; AID 540277, 2011; hit rate 0.02% among 320,000; TRPV1-expressing cells, Fluo-8 calcium influx, capsaicin EC20 potentiation; host cell line not named in the record; control for the full effect not named in the record; potentiation, % at 8.33 µM; Transient receptor potential cation channel subfamily V member 1 (Homo sapiens), Q8NER1; active means potentiation above 80%; inconclusive means 30% to 80%; inactive means below 30%; note: 0% is about no effect
# Target sequence (Q8NER1 whole entry, looked up): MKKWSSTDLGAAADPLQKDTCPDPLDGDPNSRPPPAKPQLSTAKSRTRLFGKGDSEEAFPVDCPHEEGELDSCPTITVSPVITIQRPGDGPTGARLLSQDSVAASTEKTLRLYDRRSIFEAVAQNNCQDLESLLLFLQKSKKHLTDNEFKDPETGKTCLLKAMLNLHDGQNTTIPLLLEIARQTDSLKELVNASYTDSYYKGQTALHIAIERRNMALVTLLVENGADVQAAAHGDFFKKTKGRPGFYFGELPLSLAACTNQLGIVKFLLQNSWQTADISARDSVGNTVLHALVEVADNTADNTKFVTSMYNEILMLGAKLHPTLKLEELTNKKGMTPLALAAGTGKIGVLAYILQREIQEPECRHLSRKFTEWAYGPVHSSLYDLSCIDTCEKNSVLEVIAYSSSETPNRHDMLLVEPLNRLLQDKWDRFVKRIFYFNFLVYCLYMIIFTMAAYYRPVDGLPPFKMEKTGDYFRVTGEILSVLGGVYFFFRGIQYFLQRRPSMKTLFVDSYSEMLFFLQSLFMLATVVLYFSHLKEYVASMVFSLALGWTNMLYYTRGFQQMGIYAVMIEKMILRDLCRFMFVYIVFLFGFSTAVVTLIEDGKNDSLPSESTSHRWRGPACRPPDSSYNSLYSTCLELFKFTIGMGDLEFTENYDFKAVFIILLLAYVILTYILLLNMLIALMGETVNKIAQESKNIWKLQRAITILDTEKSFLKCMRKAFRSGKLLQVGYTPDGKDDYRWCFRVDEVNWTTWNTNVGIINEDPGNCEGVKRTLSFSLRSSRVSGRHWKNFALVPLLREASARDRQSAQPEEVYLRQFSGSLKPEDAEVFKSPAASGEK
#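 TRPV1-expressing cells were cultured overnight at 35.5C and loaded with Fluo-8 calcium dye for 40 to 90 min at room temperature. After a 10 s baseline, compound was added and calcium influx was read kinetically for 3 min (ex 480/em 520 nm).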
# CtBP-E1A blk: qHTS Assay for Inhibitors of the CtBP/E1A Interaction. CtBP / adenovirus E1A interaction (AlphaScreen). activity change, % (test concentration not listed). hit rate 0.49% among 340,000. AlphaScreen GST-E1A/His-CtBP binding, 1536-well; active compounds read low; control for the full effect not named in the record; in the data active means activity change below about -65%; inconclusive means about -30% to -65%; inactive means above about -30%; note: % is set by controls: 0 for no effect and ±100 for the full control effect
#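 GST-E1A and His-tagged CtBP (125 nM each as 5X stock) were preincubated with pin-transferred compound for 2 h at 37 °C in the dark, then glutathione donor and nickel acceptor beads were added for 1 h before AlphaScreen reading.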
# gsp agonist: qHTS for Agonist of gsp, the Etiologic Mutation Responsible for Fibrous Dysplasia/McCune-Albright Syndrome: qHTS; Potency, µM (series often up to 76.9 µM), without a hit: at the top dose activation (cAMP increase), usual class: activators; gsp mutant cells, cAMP HTRF, 30 min; control for the full effect not named in the record; hit rate 0.13% among 340,000; active = well fitted activation curve with a large enough effect; inconclusive = small, poorly fitted or top-dose-only effect, or another doubt; inactive = no such curve, though single readings can be large or run the other way; cell line not stated here;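 note: phosphodiesterase inhibitor Ro 20-1724 added with compounds to block cAMP breakdown; potency is the fitted concentration of half-maximal effect; nearly all actives have a fitted effect of over 60% in size; about a fifth of the inactives were tested at one dose only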
#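 Cells stably selected in G418 were plated at 2000/well, grown 16-24 hr, then given compounds in DMSO with the PDE inhibitor […] (300 uM solution added) for 30 min at 37C; cAMP was read by HTRF.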
# gsp antag: qHTS for Antagonists of gsp, the Etiologic Mutation Responsible for Fibrous Dysplasia/McCune-Albright Syndrome: qHTS; gsp-mutant cells, cAMP HTRF, 30 min; control for the full effect not named in the record; hit rate 0.4% among 340,000; Potency, µM (top dose mostly 76.9 µM), without a hit: top-dose activity change, negative = inhibition, hits mostly inhibitors; active = falling curve of any shape with a large fitted effect; inconclusive = falling curve, mostly with a smaller effect; inactive = flat or rising curve; cell line not stated here;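 note: intracellular cAMP measured with PDE inhibitor Ro 20-1724 present during compound exposure; potency is the fitted concentration of half-maximal effect; % is set by controls: 0 for no effect and ±100 for the full control effect; nearly all actives have a fitted effect of over 65% in size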
#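 Measurement of cellular cAMP by homogeneous time-resolved fluorescence following a 30 min compound exposure at 37C. The PDE inhibitor […] was present throughout; the assay buffer was DPBS with 0.05% BSA and 0.005% Tween 20.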
# Menin MLL FP FL: qHTS Assay for Inhibitors Targeting the Menin-MLL Interaction in MLL Related Leukemias: Competition With Fluorescein Labeled MLL-derived Peptide; Fluorescence polarization, fluorescein-MLL peptide displacement from menin; FP activity change, % at 61.4 µM; 290,000 tested, under 10 active; AID 1766, 2009; inconclusive = falling polarisation curve, or a change in total fluorescence; inactive = total fluorescence flat and polarisation flat or rising; no compound was filed as active; the % refers to the polarisation; negative = inhibition;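 note: % of control where 0% means no effect; inhibitors lower the polarisation; unlabelled MLL peptide was the positive control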
# ClpP mod: qHTS Assay for Activators of ClpP; AID 651965, 2013; hit rate 1.9% among 340,000; Potency, µM (titrated, usually from 57.5 µM), inactives show at the top dose activity change, negative = active; purified B. subtilis ClpP, FRET peptide cleavage, 20 min; ATP-dependent Clp protease proteolytic subunit (Bacillus subtilis (strain 168)), P80244; active = well fitted falling curve with a large enough effect; inconclusive = small, poorly fitted or top-dose-only effect; inactive = no such curve, though single readings can be large or run the other way; note: potency is the fitted concentration of half-maximal effect; the source files actives as falling curves though it sought activators and does not explain the sign; nearly all actives have a fitted effect of over 65% in size; many hits overshoot -100%
# Target sequence (P80244 whole entry, looked up): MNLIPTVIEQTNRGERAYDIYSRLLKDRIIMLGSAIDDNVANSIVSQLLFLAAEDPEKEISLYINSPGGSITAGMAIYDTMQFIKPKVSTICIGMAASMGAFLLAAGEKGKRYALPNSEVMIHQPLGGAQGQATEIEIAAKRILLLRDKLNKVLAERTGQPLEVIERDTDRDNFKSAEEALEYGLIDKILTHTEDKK
#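 Purified B. subtilis ClpP, 10 microg/mL final in Tris/HCl pH8 with KCl, BSA, glycerol and Tween-20, cleaved an Abz/nitrotyrosine-quenched decapeptide. Fluorescence (ex 320, em 430) was read at 0 and 20 min at room temperature. Delta was normalized to 5.8 microM ADEP and DMSO/no-enzyme controls.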
# * = called active by the depositor; ? = inconclusive; nt = not tested or not shown; & = joins results of further samples; [ ] = another dose, or the depositor's remark.
no.	SMILES	Sfp inh	TRPV1 PAM	CtBP-E1A blk	gsp agonist
1	CC1CCCCC12NC(=O)N(CC(=O)NCCc1ccc(S(N)(=O)=O)cc1)C2=O (configuration not stated)	nt	-2	nt	24%
2	Cc1ccc(NC(=O)COC(=O)CNC(=O)C2CCCCC2)cc1S(=O)(=O)N(C)C	nt	nt	0	?
3	Cc1cccc(OCC(O)Cn2c(N3CCCCC3)nc3c2c(=O)n(C)c(=O)n3C)c1 (configuration not stated)	9%	16	nt	?
4	Cc1ccccc1NC(=O)c1cn2c(nc3ccccc32)c(C#N)c1C	21%	2	2	34%
5	Cc1cc(C)c(S(=O)(=O)N2CCN(C(=O)c3ccc(-n4cncn4)c([N+](=O)[O-])c3)CC2)c(C)c1	nt	5	-5	-9%
6	Cn1c(CNC(=O)c2ccccc2F)nnc1SCC(=O)Nc1nnc(C2CC2)s1	10%	-11	-14	19%
7	O=C1CC(N2CCN(c3ccccc3)CC2)C(=O)N1CCc1ccccc1 (configuration not stated)	16%	25	-2	-18%
8	COc1ccc(CNn2c(-c3ccccc3F)nc3ccccc3c2=O)cc1OC	29%	-1	4	-5%[15.4 µM]
9	CCN=C1S/C(=C\c2ccc(O)c(OCC)c2)C(=O)N1CC	6%	-5	4	?
10	CCCCC(CC)CNC(=O)c1cccs1 (configuration not stated)	-10%	3	3	-23%

no.	gsp antag	Menin MLL FP FL	ClpP mod
1	5%	nt	1.9%
2	-2%	nt	nt
3	-11%	-1.7	1.1%
4	17%	4.6	-7.6%
5	-6%	nt	-0.6%
6	9%	nt	nt
7	-8%	0.5	-2.7%
8	2%	-9.6	nt
9	7%	38[activator]	-0.9%
10	0%	3.3	-0.5%

# The list goes on:
no.	SMILES	Sfp inh	TRPV1 PAM	CtBP-E1A blk	gsp agonist
11	CC(C)C(=O)N(Cc1ccc2c(c1)OCO2)Cc1ccccn1	-16%	-10	3	-7%
12	O=C(NCCc1ccccc1)C1(c2ccccc2)CC1(Cl)Cl (configuration not stated)	6%	9	10	-41%[inhibitor]
13	COc1cc(C(CCN2CCN(c3ccccc3)CC2)c2c(OC)cc(OC)c3c(C)cc(=O)oc23)cc(OC)c1OC (configuration not stated)	?	-5	-23	nt
14	Cc1ccc(OCCCn2c(CO)nc3ccccc32)cc1	16%	-13	-7	-13%
15	Cc1nc(NC(C)c2ccccc2)c2c3c(sc2n1)CCC3 (configuration not stated)	-15%	-18	-4	6%
16	O=C(/C=C/c1ccc(Cl)c(Cl)c1)N1CCOCC1	19%	2	5	-43%[inhibitor]
17	CCOc1ccc(S(=O)(=O)N2CCN(C(=O)c3ccco3)CC2)cc1	8%	29	2	7%[15.4 µM]
18	O=P(O)(O)c1ccccc1OCCOCCOCCOCCOc1ccccc1P(=O)(O)O	5%	8	-5	14%
19	O=C(O)c1c2c(nc3ccc(S(=O)(=O)N4CCC(C(=O)NC5CCCCCC5)CC4)cc13)CCCC2	1%	13	?	-16%
20	COc1ccc(/C=N/NC(=O)c2c(-c3ccccc3)noc2C)cc1[N+](=O)[O-]	-1%	3	1	4%

no.	gsp antag	Menin MLL FP FL	ClpP mod
11	11%	1.0	1.0%
12	8%	-0.7	1.3%
13	-7%	1.2&3.9	-12%
14	7%	2.3	-2.6%
15	-34%	4.6	4.0%
16	-7%	-1.2	nt
17	-9%	4.5	0.7%
18	2%	-0.6	-2.7%
19	-4%	5.5	-8.8%
20	-12%	nt	-0.7%

# (list continues)
no.	SMILES	Sfp inh	TRPV1 PAM	CtBP-E1A blk	gsp agonist
21	CC(=O)Nc1cc(NC(C)=O)cc(C(=O)OCC(=O)Nc2ccc(S(=O)(=O)NC3=NCCCCC3)cc2)c1	17%	9	-1	?
22	Fc1cc(Br)ccc1NC(=S)NCCc1ccccc1	-6%	-13	12	-22%
23	FC(F)(F)c1cc(Nc2ccccc2)nc(-c2ccccn2)n1	4%	-6	-24	?
24	CCOC(=O)CP(=O)(c1ccccc1)c1ccccc1	9%	4	-1	-52%[inhibitor]
25	N#CCCCCN1CCCC1	18%	?	nt	-6%
26	C/C(=N/NC(=O)CNC(=O)CCc1ccccc1)c1ccc(Cl)cc1	14%	5	0	-6%[15.4 µM]
27	COc1cccc(NS(=O)(=O)c2cn(C)c(=O)n(C)c2=O)c1	16%	0	0	-15%
28	CCN1C(=O)c2ccccc2Sc2ccc(C(=O)NCCCN3CCCCC3)cc21	12%	7	2	-49%[inhibitor]
29	CCOC(=O)c1sc(C)c(C(=O)NCC(C)(C)CN(C)C)c1N	0%	13	1	-27%
30	O=C(COc1ccccc1Cl)Nc1nnc(S(=O)(=O)N2CCCC2)s1	15%	24	-27	-86%[inhibitor]

no.	gsp antag	Menin MLL FP FL	ClpP mod
21	12%	nt	-1.8%
22	-19%	5.6	1.1%
23	1%	0.3	-0.9%
24	-2%	-0.1	-0.9%
25	0%	0.9	-1.5%
26	-2%	1.0	-1.5%
27	7%	-3.8	-1.2%
28	14%	nt	-0.7%
29	5%	0.3	?
30	-8%	4.3	-11%&-5.7%

# The final 3 compounds of the part above are carried over, then new ones follow:
no.	SMILES	Sfp inh	TRPV1 PAM	CtBP-E1A blk	gsp agonist
28	CCN1C(=O)c2ccccc2Sc2ccc(C(=O)NCCCN3CCCCC3)cc21	12%	7	2	-49%[inhibitor]
29	CCOC(=O)c1sc(C)c(C(=O)NCC(C)(C)CN(C)C)c1N	0%	13	1	-27%
30	O=C(COc1ccccc1Cl)Nc1nnc(S(=O)(=O)N2CCCC2)s1	15%	24	-27	-86%[inhibitor]
31	COc1ccc(C(=O)Nc2nc(CC(=O)NCCc3cccc(OC)c3)cs2)cc1	nt	25	6	8%[15.4 µM]
32	Cc1ccc(S(=O)(=O)N2CCN(Cc3cc(C(C)(C)C)ccc3O)CC2)cc1	22%	4	-2	-4%
33	Fc1ccc(NC(=S)N2CCc3ccccc32)cc1	4%	-8	nt	-13%
34	CCCCCCn1ccc(=N)cc1	-1%	-7	4	-2%
35	CCCNC(=O)c1ccc2c(=O)c(O)c(-c3ccc(F)cc3)[nH]c2c1	4%	-13	?	?
36	O=C(Nc1ccc(N2CCCC2)cc1)c1ccccc1[N+](=O)[O-]	21%	-1	nt	-14%
37	O=C(O)CC(C(=O)OCC1CCCO1)N1CCOCC1 (configuration not stated)	10%	-5	-2	15%
38	C#CCNc1c2c(nc3ncnn13)CC(C)CC2 (configuration not stated)	8%	9	5	?
39	CCN(C(=O)CN1C(=O)NC2(CCC(C)CC2)C1=O)C1CCCCC1 (configuration not stated)	nt	nt	-3	6%
40	CCOC(=O)CNC(=O)c1cc(C)oc1C	5%	-7	nt	nt

no.	gsp antag	Menin MLL FP FL	ClpP mod
28	14%	nt	-0.7%
29	5%	0.3	?
30	-8%	4.3	-11%&-5.7%
31	?	nt	-0.3%
32	-11%	-1.2	-0.6%
33	3%	-2.2	-0.6%
34	9%	2.8	1.4%
35	-1%	-0.5	-6.2%
36	-9%	1.2	0.4%
37	2%	-0.9	-1.2%
38	6%	0.1	0.5%
39	nt	nt	0.2%
40	nt	-15	nt

# An excerpt of these results, with tabs.
No.	canonical_smiles	Sfp inh	TRPV1 PAM	CtBP-E1A blk	gsp agonist	gsp antag	Menin MLL FP FL	ClpP mod
13	COc1cc(C(CCN2CCN(c3ccccc3)CC2)c2c(OC)cc(OC)c3c(C)cc(=O)oc23)cc(OC)c1OC (configuration not stated)	?	-5	-23	nt	-7%	1.2&3.9	-12%
14	Cc1ccc(OCCCn2c(CO)nc3ccccc32)cc1	16%	-13	-7	-13%	7%	2.3	-2.6%
15	Cc1nc(NC(C)c2ccccc2)c2c3c(sc2n1)CCC3 (configuration not stated)	-15%	-18	-4	6%	-34%	4.6	4.0%

# Following part:
no.	SMILES	Sfp inh	TRPV1 PAM	CtBP-E1A blk	gsp agonist
41	O=C(c1ccc(F)cc1)N1CCC2(CC1)NCCc1[nH]cnc12	8%	16	-13	?
42	Cc1c(C(=O)NCCS(=O)(=O)N2CCN(c3ccccc3F)CC2)cccc1[N+](=O)[O-]	23%	9	1	-26%
43	O=C(COc1cc(Cl)ccc1Cl)N1CCNC1=O	nt	14	6	-12%[15.4 µM]
44	C[C@H]1CCC/C=C/[C@@H]2C[C@H](O)C[C@H]2[C@H](O)[C@H](S(=O)c2ccc(O)cc2)CC(=O)O1 (some centres not stated)	nt	nt	3	3%
45	O=C(NC(=S)NC1C2CC3CC(C2)CC1C3)c1ccccc1 (configuration not stated)	32%[activator]	-6	-17	3%
46	CCOc1ccc2[nH]c3c(NCCN(C)C)ncnc3c2c1	-8%	14	nt	nt
47	O=C(NCC1OCCc2ccccc21)c1ccc(NC(=O)c2ccccc2Cl)cc1 (configuration not stated)	14%	-5	1	3%[15.4 µM]
48	O=C(N[C@@H](Cc1c[nH]c2ccccc12)C(=O)O)C1CCN(S(=O)(=O)c2ccc(Cl)cc2)CC1	17%	5	0	-7%[15.4 µM]

no.	gsp antag	Menin MLL FP FL	ClpP mod
41	15%	nt	0.9%
42	5%	-0.6	2.9%
43	-4%	nt	nt
44	-8%	nt	0.8%
45	-2%	nt	-1.5%
46	nt	6.9	nt
47	-4%	9.3	0.8%
48	16%	-1.9	-2.2%
